motility: Vibrio cholerae motility inhibitors, OD read-out (AID 588778); Vibrio cholerae motility, OD read-out; higher % means a stronger effect; test concentration not given here; primary cut-off and reference of the scale not given here; strong numbers were not always called active; inhibition, %; hits with a dose series show IC50 in µg/mL; 10,000 tested, under 10 active; in the data active = confirmed in a dose series; inconclusive = primary hit not retested
motility viability: also measured in motility; calls as there; inhibition, %; measured here: bacterial viability at 10 ug/mL;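 higher means fewer living bacteria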
* = called active by the depositor; ? = inconclusive; · = not tested or not shown. This is a subset; the hit share may differ from the screen's.

Start of the listing, in advance (five entries):
SMILES | motility | motility viability
CCOc1ccc(NC(=S)NC(=NCc2ccc([N+](=O)[O-])cc2)c2ccc(C)cc2)cc1 | 0% | -3
COC(=O)C(=O)CC(=O)c1c(C)nn(-c2ccccc2)c1C | 46% | 46
CCCCC(=O)NC1=NC(=O)C(C)(C)S1 | 0% | 0
CCCS(=O)(=O)c1ccc(COC(=O)c2ccccc2SCc2ccccc2)cc1 | 8% | 5
O=[N+]([O-])c1ccc(-n2nnnc2SCc2cccc(Cl)c2)cc1 | 14% | 35

The listing (from the top)
SMILES | motility | motility viability
CCOc1ccc(NC(=S)NC(=NCc2ccc([N+](=O)[O-])cc2)c2ccc(C)cc2)cc1 | 0% | -3
COC(=O)C(=O)CC(=O)c1c(C)nn(-c2ccccc2)c1C | 46% | 46
CCCCC(=O)NC1=NC(=O)C(C)(C)S1 | 0% | 0
CCCS(=O)(=O)c1ccc(COC(=O)c2ccccc2SCc2ccccc2)cc1 | 8% | 5
O=[N+]([O-])c1ccc(-n2nnnc2SCc2cccc(Cl)c2)cc1 | 14% | 35
CSc1nc(-c2ccccc2)c(C#N)c(=O)n1C | 18% | 36
Cc1ccc(C)n1-n1cnc2sc3c(c2c1=O)CCC(C)C3 (stereo unspecified) | -5% | 0
Nc1nc(NC(=O)CCC(=O)O)nn1-c1ccccc1 | -15% | -6
COC(=O)c1sc(NC(=O)C2(C)CC2(Cl)Cl)c(C#N)c1C (stereo unspecified) | 18% | 5
COc1cc(CO)cc(Br)c1OCc1ccc(Cl)c(Cl)c1 | 0% | 16
Cc1ccccc1CSCC(=O)Nc1ccccc1-c1ccccc1 | -21% | -6
O=C(OCc1nnc(-c2ccccc2)o1)c1ccc(Br)o1 | -4% | -1
COC(=O)CN1C(C)=Nc2ccc(Cl)cc2C1c1ccccc1 (stereo unspecified) | -17% | -6
Cc1cccc(NCc2ccc(Cl)cc2)n1 | 42% | 11
Cc1nc(CC(=O)O)c(-c2ccccc2)s1 | -8% | -5
Cc1ccccc1-c1nc(C#N)c(NC2CCCCC2)o1 | -6% | -7
COc1ccc(/C=C/c2nc3ccccc3s2)cc1OC | 3% | 2
Cn1c(=O)n(C)c(=O)n(CC(=O)N2CCCCC2)c1=O | 2% | -2
CS(=O)(=O)N1CCN(C(=O)c2cc(-c3cccnc3)nc3ccc(Cl)cc23)CC1 | -16% | -5
Cc1cc(NC(=O)c2ccccc2O)nc(C)n1 | 25% | 19
Cc1ccc(/C=C/C(=O)O)cc1S(=O)(=O)NC1CCS(=O)(=O)C1 (stereo unspecified) | -7% | 3
CCOc1ccc2ccccc2c1C(=O)NN1CCN(C)CC1 | 0% | 7
c1ccc(CNn2nnnc2-c2ccccc2)cc1 | 22% | 7
CCOC(=O)CSc1nnc2c3sc4nc(N5CCOCC5)c5c(c4c3ncn12)CC(C)(C)OC5 | 39% | 16
COc1ccc(C(=O)NC(=S)NNC(=O)c2ccc(OC)c(OC)c2)cc1Br | 6% | 0
CC12CCC(C(=O)N(c3ccccc3)c3ccccc3)(CC1=O)C2(C)C (stereo unspecified) | -7% | 0
COc1ccc(NC(=O)C2C3CCCCC32)cc1 (stereo unspecified) | -32% | -13
COC(=O)c1ccc(NC2OC(=O)c3c2ccc(OC)c3OC)cc1 (stereo unspecified) | -7% | -1
CCOC(=O)C1CCN(C(=O)CNS(=O)(=O)c2ccc(F)cc2)CC1 | -7% | -7
Cc1c(OC(=O)c2ccco2)ccc2c1CCCC2 | 11% | -2
CC1(C)CC(OC(=O)c2ccncc2)CC(C)(C)N1O | -6% | -7
Cc1c(N2C(=O)C(C)SC23C(=O)Nc2ccccc23)c(=O)n(-c2ccccc2)n1C (stereo unspecified) | 23% | 1
O=C(Nc1ccc(Cl)cc1C(F)(F)F)c1cnccn1 | -4% | -2
CCC(=O)c1ccc(OCc2ccc(Cl)c(Cl)c2)cc1 | -12% | -7
CCc1cc(I)ccc1NC(=O)c1ccccc1F | -15% | -6
CCOc1ccccc1OCC(=O)Nc1nccs1 | -5% | -3
CCN(CC)S(=O)(=O)c1cccc(C(=O)c2cccc(S(=O)(=O)N(CC)CC)c2)c1 | -9% | -7
CN1CCN(NC(=O)Nc2ccc([N+](=O)[O-])cc2)CC1 | 4% | 1
O=S(=O)(NCc1cccnc1)c1ccc2c(c1)OCCO2 | 3% | 4
CC1(C)CC(=O)C2=C(C1)Nc1ccccc1NC2c1nc2ccccc2[nH]1 (stereo unspecified) | -1% | -7
COc1cc(CNCc2ccccc2Cl)ccc1OCC(N)=O | 0% | -4
O=C(CSc1ccccn1)Nc1cccc(NC(=O)C23CC4CC(CC(C4)C2)C3)c1 | 12% | 4
O=C1C2C3c4ccccc4C(c4ccccc43)C2C(=O)N1Cc1ccccn1 (stereo unspecified) | 3% | -2
c1ccc(CN2CCC(N3CCc4ccccc4C3)CC2)nc1 | -19% | 0
N#CCCn1cc(CO)c(-c2ccc(Cl)cc2)n1 | -2% | 0
COc1cc(C=O)cc(Cl)c1OCC(=O)Nc1ccccc1F | 11% | 1
COc1cc(C(=O)Oc2ccc3c(c2)OCC3=O)cc(OC)c1OC | 6% | 26
COc1ccccc1N1CCN(CC(O)COCC2COc3ccccc3O2)CC1 (stereo unspecified) | 16% | -5
COC(=O)CN(C#N)c1nc(SC)nc(N(C)C)n1 | 3% | 0
O=C(NCCC1=CCCCC1)c1ccc(Br)o1 | -6% | -14

Single entries from the list:
Result for COC(=O)CN(C#N)c1nc(SC)nc(N(C)C)n1 under motility: 3%
Result for O=C1C2C3c4ccccc4C(c4ccccc43)C2C(=O)N1Cc1ccccn1 (stereo unspecified) under motility: 3%
Result for O=C(NCCC1=CCCCC1)c1ccc(Br)o1 under motility viability: -14
Result for N#CCCn1cc(CO)c(-c2ccc(Cl)cc2)n1 under motility: -2%
Result for COc1ccccc1N1CCN(CC(O)COCC2COc3ccccc3O2)CC1 (stereo unspecified) under motility: 16%
Result for COc1cc(C=O)cc(Cl)c1OCC(=O)Nc1ccccc1F under motility viability: 1

Entries shown so far with two or more sulfur atoms:
SMILES | motility | motility viability
CCCS(=O)(=O)c1ccc(COC(=O)c2ccccc2SCc2ccccc2)cc1 | 8% | 5
Cc1ccc(/C=C/C(=O)O)cc1S(=O)(=O)NC1CCS(=O)(=O)C1 (stereo unspecified) | -7% | 3
CCOC(=O)CSc1nnc2c3sc4nc(N5CCOCC5)c5c(c4c3ncn12)CC(C)(C)OC5 | 39% | 16
CCN(CC)S(=O)(=O)c1cccc(C(=O)c2cccc(S(=O)(=O)N(CC)CC)c2)c1 | -9% | -7

(cont.)
SMILES | motility | motility viability
Cc1c(Cl)cccc1NC(=O)C(=O)NCc1ccncc1 | 6% | -8
Cc1cccc(NC(=S)NNC(=S)Nc2ccc(C)c(C)c2)c1 | -3% | 2
CCCc1nc2c(sc3nc4c(cc32)COC(C)(C)C4)c(=O)o1 | -1% | -3
O=S(=O)(Cc1ccccc1)NCc1ccco1 | -3% | -4
C=CCn1c(Cc2ccccc2)n[nH]c1=S | -8% | -3
O=C(/C=C/Nc1ccc(F)c(Cl)c1)c1ccc(Br)cc1 | -8% | -5
Cc1csc2nc(-c3ccccc3)c(Sc3ccc([N+](=O)[O-])cc3)n12 | -30% | -11
N#CCNC(=O)COc1ccc(Cl)cc1 | 5% | 6
O=S(=O)(NC1c2ccccc2-c2ccccc21)c1ccccc1 | -23% | -8
CC(C)NC(=O)C(=O)NCCN1CCN(S(=O)(=O)c2ccc3ccccc3c2)CC1 | 10% | 2
O=C(CN1CCN(Cc2ccccc2)CC1)NCCCNc1ccc([N+](=O)[O-])cc1 | 10% | 4
CS(=O)(=O)NCCSCc1ccccc1 | -7% | -2
COc1ccc(OC)c(NC(=O)CC2C(=O)NCCN2C(=O)C(F)(F)F)c1 (stereo unspecified) | 5% | 4
COc1cc(Br)cc2cc(C(=O)Nc3ccccc3F)c(=O)oc12 | 15% | -1
C=CCOc1cccc(C(=O)NCCN(C)C)c1 | 11% | 4
CCOC(=O)c1c(C)c2c(n1C)CCCC2=O | 45% | 20
CC(C(=O)Nc1nccs1)c1ccc([N+](=O)[O-])cc1 (stereo unspecified) | -13% | -6
NS(=O)(=O)c1ccc(NC(=S)N2CCC3(CC2)OCCO3)cc1 | 12% | 20
Cc1cc(C)n(C(=O)CCC2COc3ccccc3O2)n1 (stereo unspecified) | 7% | -2
CC(C)(C)NC(=O)c1ccccc1NC(=O)COc1ccccc1Cl | -2% | -5
COc1c2ccccc2nc2ccccc12 | 100% | 23
O=C(CCc1nc2ccccc2[nH]1)Nc1ccc(F)cc1 | 12% | -5
CCOC(=O)NC(=O)CSc1ccccn1 | 10% | 1
CN1CCN(CCOCCOc2ccc(Cl)c(Cl)c2)CC1 | 4% | -1
CCc1c(C)nc(SCC(=O)Nc2cc(C(F)(F)F)ccc2Cl)[nH]c1=O | 3% | 19
COc1ccc(CCNC(=S)Nc2ccc(C(=O)N3CCOCC3)cc2)cc1OC | -2% | -10
Clc1ccc(OCC#CCN2CCCC2)cc1 | 37% | 9
COc1cc(S(=O)(=O)Nc2cccnc2)ccc1F | 5% | 0
COc1ccc(C(=O)CSc2nccc(=O)[nH]2)cc1 | 10% | 3
O=S1(=O)CC(O)C(N2CCC(c3ccccc3)CC2)C1 (stereo unspecified) | 15% | 1
CCOC(=O)Cn1cnc(-c2ccc([N+](=O)[O-])cc2)c1 | -4% | -4
O=C1CC(C(=O)Nc2ncccn2)C(c2ccccc2)O1 (stereo unspecified) | -14% | -8
O=C(COc1ccc(Cl)cc1Cl)OCc1ccc(Br)cc1 | 4% | 28
CC(Oc1cccc(Cl)c1)C(=O)Nc1nc(-c2ccc(F)cc2)cs1 (stereo unspecified) | -3% | -13
Cc1cccc(NC(=O)CSc2nc(-c3ccccc3)c(-c3ccccc3)[nH]2)c1C | -4% | -2
CCOC(=O)c1c(C)[nH]c(NC(=O)NCc2ccccc2)c1C | -11% | -2
COC(=O)c1ccccc1OCCCN(C)C | 6% | 3
COc1ccc(N(NS(=O)(=O)O)C(=O)c2ccc(Cl)cc2)cc1 | -4% | -4
O=C(O)C1CCCN1C(=O)NC1CCCCC1 (stereo unspecified) | 2% | 0
Nc1ncnc2c1[nH]c(=S)n2CCOc1cccc2ccccc12 | 24% | 9
O=C(Nc1ccccc1[N+](=O)[O-])c1cc2c(s1)CCCC2 | -11% | -6
Cc1nc(Sc2ccc([N+](=O)[O-])cn2)nc2c1CCCC2 | -2% | 0
N#Cc1ccc(CSc2ccccn2)c(Cl)c1 | -6% | 1
COC(=O)c1cc(OC)c(OC)cc1NC(=O)C1CCC(=O)N1S(=O)(=O)c1ccc(C)cc1 (stereo unspecified) | -3% | -4
CNc1nsc(C(=O)c2ccc(OC)cc2)c1N | -2% | 1
FC(F)(F)c1cc(-c2ccc(Cl)cc2)nc(NCc2cccnc2)n1 | 10% | 4
Cc1ccc(C)c(OCCCC(=O)Nc2nc3ccccc3s2)c1 | -11% | -5
Cc1cccc(C)c1OCC(=O)N/N=C/c1ccc(O)c([N+](=O)[O-])c1 | 9% | 4
O=C1C2CCCC1CC(C(=O)N1CCN(C(c3ccccc3)c3ccccc3)CC1)C2 (stereo unspecified) | -2% | -4
CCOc1cc(CO)cc(Br)c1OCc1ccc([N+](=O)[O-])cc1 | 3% | -1

Further compounds follow:
SMILES | motility | motility viability
O=C(Nn1cnnc1)c1ccccc1-c1ccccc1 | 6% | -5
N#CCC(=O)N1CCN(c2ccccc2)CC1 | -14% | -3
Nc1nc(SCC(=O)N2CCCc3ccccc32)[nH]c(=O)c1-c1ccccc1 | 4% | 0
CCOc1c(/C=C/c2[nH]c(=O)[nH]c(=O)c2[N+](=O)[O-])cccc1OC | -8% | -8
O=C(Oc1cccc2cccnc12)c1ccco1 | 81% | 23
CCOC(=O)c1c(NC(=O)Nc2ccccc2C)sc2c1CC(C)(C)OC2 | 9% | 25
O=C(COc1ccc(Cl)cc1Cl)Nc1nc(OCc2ccccc2)cs1 | 14% | -9
CCOc1ccc(NS(=O)(=O)c2ccc(NC(=O)Cc3ccccc3[N+](=O)[O-])cc2)cc1 | 4% | 15
COC(=O)c1c(NC(=O)CSc2cc(C)c3ccccc3n2)sc(C)c1C | -14% | -10
COc1ccccc1-c1noc(-c2ccco2)n1 | 23% | 6
O=C(Nc1ccccc1N1CCCC1)c1c(F)c(F)c(F)c(F)c1F | 0% | 2
CCOc1cc([N+](=O)[O-])ccc1NC(=O)C1CC(=O)NC(=Nc2ccc(C)cc2)S1 (stereo unspecified) | -39% | -14
CC1(C)Cc2c(sc3nc(-c4cc5ccccc5o4)n(N)c(=O)c23)CO1 | 0% | -2
Cc1c(C=C(C#N)C#N)c(C)c([N+](=O)[O-])c(C)c1[N+](=O)[O-] | ? | ·
Cc1c(NC(=O)c2cnn3cc(Br)cnc23)c(=O)n(-c2ccccc2)n1C | -5% | -4
Cc1ccc2c(c1)C(c1ccccc1)CC(C)N2C(=O)CCCC(=O)O (stereo unspecified) | -2% | -2
COC(=O)C(Cc1ccc(O)cc1)NC(=O)c1cc2c(n(-c3ccc(Cl)cc3)c1=O)CCCC2=O (stereo unspecified) | -6% | -3
O=C(O)c1cc(NCc2ccccc2C(F)(F)F)ccc1N1CCOCC1 | -4% | -2
Cc1ccc(S(=O)(=O)N2CCCC2C(=O)NCCc2nc3ccccc3[nH]2)cc1 (stereo unspecified) | -15% | -8
Oc1c(CN2CCN(c3ccc(F)cc3)CC2)cc(Cl)c2cccnc12 | 15% | 30
CC(Oc1ccc(NC(=O)c2cccs2)cc1)C(=O)c1cccc(Cl)c1 (stereo unspecified) | 3% | 1
CCOC(=O)COc1ccc(CCNC(C)=O)cc1 | -5% | -4

Assay outcomes from PubChem.
